GIRK2 activ: opens human GIRK2 potassium channels; hit rate 0.05% among 63,000; AID 1259325; calls only for hits at 25 µM; HEK293-GIRK2 thallium flux, Thallos fluorescence; P48051;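 active = among the strongest 0.2% of first-round signals and kept after retests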;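 also: first round at about 10 µM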
Target sequence (P48051 whole entry, looked up): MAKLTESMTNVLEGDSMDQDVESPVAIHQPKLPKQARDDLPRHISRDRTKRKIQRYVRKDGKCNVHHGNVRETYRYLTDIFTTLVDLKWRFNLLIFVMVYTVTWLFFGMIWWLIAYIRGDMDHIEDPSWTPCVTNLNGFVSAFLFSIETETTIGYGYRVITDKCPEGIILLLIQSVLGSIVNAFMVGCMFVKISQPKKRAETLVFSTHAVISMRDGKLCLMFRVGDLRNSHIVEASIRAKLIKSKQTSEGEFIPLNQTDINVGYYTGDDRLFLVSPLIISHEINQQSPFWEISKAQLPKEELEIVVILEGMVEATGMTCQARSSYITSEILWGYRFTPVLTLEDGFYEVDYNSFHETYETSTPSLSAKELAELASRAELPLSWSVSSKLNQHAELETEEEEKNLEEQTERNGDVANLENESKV
Calls only; i = inactive; + = active, no number.

SMILES | GIRK2 activ
CC(=O)Nc1ccc(S(=O)(=O)N2CCOC3(CCOCC3)C2)cc1 | i
Cc1cc(C)cc(NC(=O)c2ccc(Oc3nccnc3N3CCCCC3)cc2)c1 | i
Cc1ccc(-c2csc(-n3nc(C)cc3NC(=O)c3ccc(F)cc3)n2)cc1 | i
O=C(NCC1(O)CCc2ccccc2C1)c1nc2ccccc2s1 (stereo not given) | i
Cc1ccc(S(=O)(=O)C(NC(=O)c2ccco2)C(=O)N2CCN(C(=O)c3ccco3)CC2)cc1 (stereo not given) | i
COc1ccc(-c2ncncc2Oc2ccccc2OC)c(O)c1 | i
CC(C)(C)c1noc(C2CC(=O)N(CCc3cccs3)C2)n1 (stereo not given) | i
COc1ccc(CNC(=O)N2CCN(c3nc4ccccc4s3)CC2)cc1 | i
COc1ccc(CNC(=O)N2CCCC(c3nnc(-c4cccs4)o3)C2)cc1 (stereo not given) | i
Cc1ccc(Cc2cnc(NC(=O)CNc3ccc(C)cc3)s2)cc1 | i
Cc1oncc1C(=O)Nc1ccc2c(c1)C(=O)N1CCCCC1CCO2 (stereo not given) | i
COc1cccc(NC(=O)N2CCC(S(C)(=O)=O)CC2)c1OC | i
Cc1nnc(C2CCCN(C(=O)NC(C)C)C2)s1 (stereo not given) | i
O=C(NCc1ccccc1)c1n[nH]n2c1nc(=O)c1cc(F)ccc12 | i
COc1ccc(S(=O)(=O)NCCCN2CCN(c3ccccc3)CC2)cc1 | i
COc1ccc(CCNC(=O)N2CCC(CSc3nccn3C)CC2)cc1 | i
COc1ccccc1N1CCN(c2nccnc2SCC(=O)Nc2ccc(C)c(C)c2)CC1 | i
O=C(Nc1nc(C(=O)NCc2ccco2)co1)c1ccsc1 | i
COc1cc2ccccc2cc1/C=C/C(=O)c1ccco1 | i
C=CCN1CC(c2nc3ccccc3n2Cc2ccccc2C)CC1=O (stereo not given) | i
CCOc1ccc(N2C(=O)C3N=NN(CC(=O)Nc4ccc(C)c(C)c4)C3C2=O)cc1 (stereo not given) | i
COc1ccc(Cl)cc1NC(=O)c1c(O)c2cccnc2[nH]c1=O | i
CCn1c(SCC(=O)Nc2ccc3c(c2)OCO3)nc2c3cc(OC)ccc3n(C)c2c1=O | i
Cc1cnc2c(c1N1CCC(O)CC1)c(=O)n(C)c(=O)n2C | i

Brought forward from above: 2 entries, followed by the next part.
SMILES | GIRK2 activ
CCn1c(SCC(=O)Nc2ccc3c(c2)OCO3)nc2c3cc(OC)ccc3n(C)c2c1=O | i
Cc1cnc2c(c1N1CCC(O)CC1)c(=O)n(C)c(=O)n2C | i
NS(=O)(=O)c1ccc(N=Nc2c(O)[nH]c3ccc(Cl)cc23)cc1 | i
CCCCCNc1nc2c(c(=O)n(Cc3ccc(C)cc3)c(=O)n2C)n1C | i
COc1c(C)cnc(Cn2cccc(-c3nc(-c4cnccn4)no3)c2=O)c1C | i
Cc1c(NC(=O)C2(c3cc(-c4ccccc4)on3)CC2)c(=O)n(-c2ccccc2)n1C | i
CCCCNC(=O)c1ccc(-n2ccnc2SCC(=O)Nc2cccc(C)c2)cc1 | i
COC(=O)c1ccc(CN2CCN(c3c(C)nn(C4CCS(=O)(=O)C4)c3C)CC2)cc1 (stereo not given) | i
CS(=O)(=O)c1ccc(-c2nnc(SCC(N)=O)o2)cc1 | i
CC(=O)Nc1ccc(S(=O)(=O)N2CCN(c3ccc(-c4noc(C)n4)cn3)CC2)cc1 | i
COCCN(Cc1ccncc1)C(=O)c1ccc(Cl)c(Cl)c1 | i
COc1ccc(C2C(=C(O)c3ccccc3)C(=O)C(=O)N2c2nc(C)c(C)s2)cc1 (stereo not given) | i
O=C(Nn1cnc2c(cnn2-c2ccccc2)c1=O)c1c(F)cccc1Cl | i
O=C(NCC(O)c1ccc2c(c1)CCO2)C(=O)Nc1ccccc1Cl (stereo not given) | i
COc1ccc(Cl)cc1C(=O)NCCCOc1cccc2cccnc12 | i
Cc1cccc(C(=O)Nc2c(C(=O)N3CCN(c4ccccc4)CC3)[nH]c3ccc(C)cc23)c1 | i
COc1ccc(NC(=O)c2cc3c(=O)n(C)c(=O)n(C)c3n2Cc2ccccc2)cc1 | i
O=C(Cn1nc2c(c1NC(=O)CC1CCCC1)CSC2)NCc1ccccc1 | i
CCC(C)c1ccccc1OCC(O)CN1CCN(CCN2C(=O)c3cccc4cccc(c34)C2=O)CC1 (stereo not given) | i
O=S(=O)(NCC1(O)CCOc2ccccc21)c1ccc(OC(F)(F)F)cc1 (stereo not given) | i
NS(=O)(=O)c1ccccc1NC(=O)NC1(C(F)(F)F)Oc2ccccc2O1 | i
COc1ccc(S(=O)(=O)N(CCc2cccs2)Cc2ccoc2)c(C)c1 | i
O=C(CN1CCC(COCc2ccc(F)cc2)CC1)Nc1cccc(C(F)(F)F)c1 | i
COCCOC(=O)c1c(C)oc2ccc(OCC(=O)c3ccccc3)cc12 | i
COc1cccc(-n2nnc(-c3nc(C)c(C(=O)NCc4ccccc4F)s3)c2C)c1 | i
CC(NC(=O)C1CCN(c2ccc(-c3cccnc3)nn2)CC1)c1ccccc1 (stereo not given) | i
CC(=O)OC[C@H]1O[C@@H](OC(CCCCCCCCCCCC(CO)O[C@@H]2O[C@H](CO)[C@@H](O)[C@H](O)[C@H]2O)CC(=O)O)[C@H](O)[C@@H](O)[C@@H]1O (stereo not given in full) | i
COc1ccc(Cn2c(CO)cnc2SCC(=O)Nc2cccc([N+](=O)[O-])c2)cc1 | i
COC(=O)c1ccc(CSc2nnc(C)c3cnn(-c4ccc(C)c(C)c4)c23)o1 | i
O=S(=O)(c1ccc(Br)s1)N1CCC(c2nnc(C(F)(F)F)o2)CC1 | i
COc1cccc(C(=O)N2CCN(Cc3nc4ccccc4[nH]3)CC2)c1 | i
CCOC(=O)c1cc2c(=O)n3cccc(C)c3nc2n(C)c1=N | i
COc1ccc(S(=O)(=O)c2cnc(N(C)Cc3ccccc3)nc2N)cc1Cl | i
COc1ccc(CCNC(=O)c2nnn(CC(=O)Nc3ccc(C)cc3C)c2N)cc1OC | i
Cc1cc(=O)oc2cc(NC(=O)C3CCC(=O)N3)ccc12 (stereo not given) | i
O=C(Nc1cccnc1)c1csc(Nc2ccc(OC(F)F)cc2)n1 | i
Cc1ccc(-n2cc(C(=O)N3CCC(Cc4ccccc4)CC3)nn2)cc1 | i
C#CCOCC1CCCN(C(=O)c2cc(OC)ccc2Br)C1 (stereo not given) | i
O=C(NCC(c1cccs1)S(=O)(=O)c1ccc(F)cc1)c1ccc2nsnc2c1 (stereo not given) | i
O=C(Cn1cccn1)NCC(Cc1cccc(F)c1)N1CCCC1=O (stereo not given) | i
Cc1cccc(N(C)C(=O)Cn2cc(-c3ccccc3)c(N(C)C)n2)c1 | i
O=C(c1ccc[nH]c1=O)N1CCC(Cn2c(COc3ccccc3)nc3ccccc32)CC1 | i
COc1ccccc1N1CCN(C(c2cccs2)C(C)NS(=O)(=O)c2ccc(Cl)cc2)CC1 (stereo not given) | i
N#Cc1nc(-c2ccc(S(=O)(=O)N3CCCC3)cc2)oc1N1CCN(c2cccc(Cl)c2)CC1 | i
C=CC(C)(C)OCC(O)CN1CCN(c2cc(Cl)ccc2C)CC1 (stereo not given) | i
CCN(Cc1ccccc1)C(=O)c1cn(-c2cccc(Cl)c2)nn1 | i
O=C1C(=O)N(c2nccs2)C(c2cccc(Cl)c2)C1=C(O)c1ccc(Cl)cc1 (stereo not given) | i
CC(C)COc1ccc(S(=O)(=O)NCc2ccc(C(=O)c3cccs3)s2)cc1 | i
C#CCn1c(=NC(=O)CSc2ccc(F)cc2)sc2cc(C)c(C)cc21 | i
Cc1nc2ccccn2c1C(=O)N1CCn2c1nc1ccccc12 | i
COC(=O)c1ccc(C2C(C(=O)c3sc(C)nc3C)=C(O)C(=O)N2CCN(C)C)cc1 (stereo not given) | i
O=C(COc1ccc(-n2cccn2)nn1)N1CCN(c2ccc(N3CCCCC3)nn2)CC1 | i
COc1ccc(CNC(=O)c2nnn(-c3ccc(C)c(C)c3)c2-c2cccnc2)cc1OC | i
Cc1ccc(CNC(=O)CSc2cc(N3CCC(C)CC3)ncn2)cc1 | i
Cc1cc(-c2nn[nH]n2)ccc1Cl | i
CC(=O)Nc1ccc(S(=O)(=O)NC(C)Cn2cncn2)cc1 (stereo not given) | i
O=C(NC1CCCC1)c1nnn(-c2ccc(NS(=O)(=O)c3cccc(Cl)c3)cc2)n1 | i
CCOC(=O)c1cnn2ccc(NC(=O)c3ccccc3C)cc12 | i
C=CCOc1cccc(C2c3c(oc4cc(C)c(C)cc4c3=O)C(=O)N2CCCN(C)C)c1 (stereo not given) | i
Cc1ccc2nc(NC(=O)c3cc(=O)c(OCc4ccccc4)c[nH]3)sc2c1 | i
Cn1cc(NC(=O)N2CCCc3ccccc32)c2ccccc21 | i
COc1ccc(-c2coc3cc(OC(=O)c4ccc5c(c4)OCO5)ccc3c2=O)cc1 | i

Ordered by SMILES length (descending): 5 of the compounds above.
SMILES | GIRK2 activ
COc1ccc(-c2coc3cc(OC(=O)c4ccc5c(c4)OCO5)ccc3c2=O)cc1 | i
Cc1ccc(CNC(=O)CSc2cc(N3CCC(C)CC3)ncn2)cc1 | i
CC(=O)Nc1ccc(S(=O)(=O)NC(C)Cn2cncn2)cc1 (stereo not given) | i
Cn1cc(NC(=O)N2CCCc3ccccc32)c2ccccc21 | i
Cc1cc(-c2nn[nH]n2)ccc1Cl | i

Next compounds follow:
SMILES | GIRK2 activ
COc1ccc2sc(N3CC(C(=O)Nc4ccc(C)c(F)c4)C3)nc2c1 | i
COc1ccc(Cl)cc1NC(=O)N1CCCC(c2nnc(-c3cccs3)o2)C1 (stereo not given) | i
N#Cc1ccc(COCC2CCN(C(=O)Nc3cccc(Cl)c3)CC2)cc1 | i
Cc1nc(-c2ccccc2Cl)sc1CNC(=O)CCn1cnc2ccccc2c1=O | i
CCOc1ccc(NC(=O)N2CC(c3nc(-c4cccc(Cl)c4)no3)C2)cc1 | i
CCN(C(=O)CSc1ncc(S(=O)(=O)c2cccs2)c(N)n1)c1ccccc1 | i
CCOc1ccc(/C=C2\SC(=S)N(CC(=O)Nc3cccnc3)C2=O)cc1 | i
O=C(c1cccs1)N1CCCC(COCc2ccccc2)C1 (stereo not given) | i
O=C(Cn1nc(-n2cccn2)ccc1=O)Nc1nc(-c2ccco2)cs1 | i
COc1ccc(C(=S)N2CCN(C(=S)NC3CCCCC3)CC2)cc1 | i
CCN(Cc1ccccc1)C(=O)C1CCN(c2ccc(-c3ccco3)nn2)CC1 | i
CCCS(=O)(=O)N1CCN=C1SCc1cccc(C(F)(F)F)c1 | i
COc1ccc(CC(=O)N2CCC(CSC3=NCCS3)CC2)cc1OC | i
O=C(O)CCCCCCCCCCN1C(=O)CCC1=O | i
Cn1nc(CNC(=O)COc2cccc3c2OC(C)(C)C3)cc1-c1ccco1 | i
COC(=O)c1ccc(NC(=O)CSc2n[nH]c(=O)c3cc(-c4ccco4)nn23)cc1 | i
Cc1nc(-c2ccco2)sc1CNC(=O)Cc1cn(C)c2ccccc12 | i
Cc1nnsc1C(=O)N1CCC(CNC(=O)CSC2CCCC2)CC1 | i
O=C1COc2ccc(Br)cc2CN1c1cccc(Cl)c1 | i
NNC(=O)COc1ccc(-c2n[nH]c(C(F)(F)F)c2-c2ccc(Br)cc2)c(O)c1 | i
O=S(=O)(NCC#CCN1CCCC1)c1ccc(C(F)(F)F)cc1 | i
CCOC(=O)CSc1nc2cc(OC)c(OC)cc2c2nc(CCn3nc(C)cc3C)nn12 | i
O=C(NCc1ccccn1)C1CCCN(C(=O)NCc2cccs2)C1 (stereo not given) | i
CCOC(=O)N1CCC(NC(=O)C2CCN(c3nc4ccccc4[nH]c3=O)CC2)CC1 | i
COC(=O)CN1CCN(c2nc3c(c(=O)[nH]c(=O)n3C)n2Cc2cc(C)ccc2C)CC1 | i
COc1ccccc1CNC(=O)c1[nH]c2ccccc2c1NC(=O)c1ccc(C)cc1 | i
Cn1c(=O)[nH]c(=O)c2c1ncn2Cc1c(F)cccc1Cl | i
COc1ccc(NC(=O)Cn2nc3c(Oc4cccc(C)c4C)nccn3c2=O)cc1OC | i
Cc1cc(C)cc(C(=O)N2CCC3(CC2)NC(=O)c2cc(Cl)ccc2N3C)c1 | i
CNC(=O)c1nnn(-c2ccccc2F)c1-c1ccccn1 | i
COC(=O)c1ccc(S(=O)(=O)N2CCC(C(=O)NCc3nc(C)no3)CC2)cc1 | i
Cc1cc(NC(=O)C2CCN(C(=O)Cn3ccc4ccccc43)CC2)no1 | i
CCCCn1c(=O)c2ccccc2n(Cc2nc(-c3ccc(SC)cc3)no2)c1=O | i
COCCN(Cc1ccsc1)S(=O)(=O)c1ccc(NC(=O)C(C)C)cc1 | i
O=C(NCCCN1CCN(c2ccccc2)CC1)NCc1ccc(F)cc1 | i
COc1ccc(CCNC(=O)N2CC(Oc3nc4ccccc4s3)C2)cc1 | i
O=C(Nc1cc(Cl)ccc1O)c1cnn2c1OCCC2 | +
COc1ccc(Nc2nc(N3CCCC3)nc(N3CCCC3)n2)cc1 | i
Cc1ccc(C2NC(=O)N(CC(=O)Nc3ccccc3C(F)(F)F)C3=C2C(=O)OC3)cc1 (stereo not given) | i
Nc1nc(SCC(=O)Nc2nc(-c3ccccc3)ns2)n[nH]1 | i
CCN1CN(CC(=O)O)CN(CC)C1=S | i
O=C(NCCNc1cc(-n2cccc2)ncn1)c1ccc(Br)o1 | i
COc1ccc(OC)c(-c2csc(Nc3ccccn3)n2)c1 | i

4 entries from above, reformatted.
GIRK2 activ,smiles
i,O=S(=O)(c1ccc(Br)s1)N1CCC(c2nnc(C(F)(F)F)o2)CC1
i,COc1cccc(C(=O)N2CCN(Cc3nc4ccccc4[nH]3)CC2)c1
i,CCOC(=O)c1cc2c(=O)n3cccc(C)c3nc2n(C)c1=N
i,COc1ccc(S(=O)(=O)c2cnc(N(C)Cc3ccccc3)nc2N)cc1Cl

A portion of the library (hit frequency here may not be typical).
